Screens deposited in PubChem by several laboratories.
CBX7 inh: blocks human CBX7 binding to H3K27me3 peptide; AID 1224903; actives 1.1% (n = 66,000); normalised signal (fraction of DMSO) (concentration not given with the values); O95931; AlphaScreen His6-CBX7 / biotin-H3K27me3 peptide binding; hits give low values; in the data active means normalised signal below about 0.5;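 further: 100 nL library stock added to about 20 µL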
Target sequence (O95931 whole entry, looked up): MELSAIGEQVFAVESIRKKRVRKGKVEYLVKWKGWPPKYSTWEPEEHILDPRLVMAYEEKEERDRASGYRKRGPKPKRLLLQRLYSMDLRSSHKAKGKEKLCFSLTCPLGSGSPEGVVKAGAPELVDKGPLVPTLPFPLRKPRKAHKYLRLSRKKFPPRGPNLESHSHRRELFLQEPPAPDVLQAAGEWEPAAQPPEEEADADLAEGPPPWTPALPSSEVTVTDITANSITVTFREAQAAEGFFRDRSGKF
CBX7 inh z-score: second read-out of CBX7 inh, no call of its own (marks repeat the call); z-score; measured here: z-score of CBX7 signal; some inactives read as strong as hits; reference of the scale not given here;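 same signal on another scale; lower means less binding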
An asterisk follows results filed as active; ! = not confirmed by another sample.

structure	CBX7 inh	CBX7 inh z-score
CCCCN(CCCNC(=O)CN1N=C(c2ccccc2)CCC1=O)Cc1ccccc1	1	0.47
Cc1noc(/C=C/c2ccco2)c1S(=O)(=O)N1CCC(C(=O)Nc2nccs2)CC1	0.89	-4.7
CCC1CCCCN1C(=O)c1cc2sc(Cl)cc2n1C (stereo not drawn)	1	-0.17
Cc1ccc(-c2noc(CCC(=O)Nc3ccc(F)c(Cl)c3)n2)cc1	1.2	0.21
Cc1ccc(CSc2nc3ccncc3n2CC(=O)N(C)C2CCCCC2)cc1	0.98	-0.3
Cc1onc(-c2ccccc2Cl)c1C(=O)Nc1cnn(Cc2ccccc2)c1	0.93	-0.093
CC1CCN(CCCNC(=O)c2cc(=O)[nH]c3ccc(S(=O)(=O)N4CCCCC4)cc23)CC1	0.91	-1.1
Cc1ccc(-c2nn3c(C)nnc3s2)cc1NC(=O)Cc1ccc(Cl)cc1	0.98	-0.69
CCN(C(=O)Cc1c(C(=O)O)[nH]c2ccc(Cl)cc12)c1ccccc1	0.89	-1
CC1CCN(S(=O)(=O)c2ccc3c(c2)c(=O)c(C(=O)NCc2ccccc2Cl)cn3C)CC1	1.1	1.3
CCCOc1cccc(C(=O)Nc2cccc(-c3nc4cc(C)ccc4o3)c2)c1	1.1	0.99
N#Cc1c(NC(=O)c2cc(-c3cccc(Cl)c3)on2)sc2c1CCC2	1.2	1.6
CCOc1cc2[nH]c(=O)n(CCCC(=O)N3CC=C(c4ccccc4)CC3)c(=O)c2cc1OCC	0.96	-0.86
COc1ccc(-c2cc(C(=O)Nc3ccc(S(N)(=O)=O)cc3)c3ccccc3n2)cc1	1	0.26
Cc1cccn2cc(-c3ccc(NS(=O)(=O)c4ccc(Cl)cc4)cc3)nc12	1	-0.0017
O=C(NCCc1ccccc1)C1CC(=O)N(C2CCCC2)C1 (stereo not drawn)	0.96	-1.4
CCN1C(=O)c2ccccc2S(=O)c2ccc(C(=O)NCCC3=CCCCC3)cc21 (stereo not drawn)	0.97	-0.73
O=C(Nc1c[nH]c(=O)[nH]c1=O)c1ccc2c(c1)C(=O)N(c1nccs1)C2=O	0.9	-1.6
CCOc1ccc(NC2=NC3CS(=O)(=O)CC3S2)cc1 (stereo not drawn)	0.98	-0.39
CCC(C)NC(=O)CCN1C(=O)COc2ccccc21 (stereo not drawn)	0.99	-0.18
CCn1c(C(=O)NC2CCCCCC2)cc2sc(Cl)cc21	1.1	1.1
CCc1ccc2oc(-c3ccc(NC(=O)c4ccc(C)cc4Cl)cc3)nc2c1	0.93	-1.1
Cc1nn(CC(=O)Nc2ccccc2)c(=O)c2ccccc12	1	1.3
COc1ccccc1CNC(=O)c1c[nH]c2ccc(S(=O)(=O)Nc3cc(C)cc(C)c3)cc2c1=O	0.97	-0.44
CCN(C(=O)Cn1ncc2c1-c1ccccc1OC2)c1ccccc1	0.89	-3.1
O=C1CN(C(=O)CCc2ccccc2)C(c2ccc(F)cc2)c2cc(Br)ccc2N1 (stereo not drawn)	0.92	-2
Cn1nc(-c2ccc(Cl)cc2)c2cc(C(=O)NCCCN3CCOCC3)sc21	1.1	0.23
CCCCCCCOc1ccc(C(=O)Nc2cc(C)cc(C)n2)cc1	1.6	12
CCOc1ccc(CCNC(=O)C2=CCN(S(=O)(=O)c3ccc(F)cc3)CC2)cc1OCC	1.1	2.4
Cc1cc(C)cc(C(=O)NCCc2cc3ccc(C)cc3[nH]c2=O)c1	0.86	-1.8
CCc1ccc2oc(-c3ccc(NC(=O)COc4cccc(C)c4C)cc3)nc2c1	1	0.31
c1ccc(N2CCN(c3ccc4nnnn4n3)CC2)cc1	0.99	-0.14
COc1cccc(C(=O)N(Cc2ccc(Cl)cc2)C2CCS(=O)(=O)C2)c1 (stereo not drawn)	0.89	-0.11
O=C(NCC1CCCO1)C1CCCN(c2nnc(-n3cccc3)s2)C1 (stereo not drawn)	1	0.21
CCOc1ccccc1C1CC(=O)NC2=C1C(=O)CC(C)(C)C2 (stereo not drawn)	1	0.069
COc1ccccc1-c1c(C)nn2c(NCC(OC)OC)cc(C)nc12	1	0.077
CCOc1ccc(N2C(=O)CC(Cc3cc(C)cc(C)c3)C2=O)cc1 (stereo not drawn)	1.1	1.9
CN(c1ccc(Br)cc1)S(=O)(=O)c1ccc2[nH]c(=O)c(=O)[nH]c2c1	1	0.33
COC(=O)c1ccccc1NC(=O)c1onc(C)c1Cl	0.92	-1.5
Cc1cccc(NC(=O)CC23CC4CC(C2)CC(n2nnc(C)n2)(C4)C3)c1	1	0.28
Cc1nc2c(-c3ccccc3)c(C)nn2c(C)c1CCC(=O)NCCCN1CCCC1=O	1.1	1.1
Cc1c(NC(=O)c2cncc(Br)c2)cccc1-c1nc2cc(Cl)ccc2o1	1.1	2.4
CCCN(CCC)S(=O)(=O)c1ccc(C(=O)Nc2ccc3c(c2)C(=O)N(C)C3=O)cc1	1	0.52
COc1cccc(-c2nc(-c3cccnc3)no2)c1OC	0.88	-1.3
O=c1[nH]c(-c2ccc(Cl)cc2)cn1-c1ccc(F)cc1F	1	0.079
O=C(CN1C(=O)CCSc2ccccc21)Nc1ccc(F)cc1F	1	0.64
Cc1ccc(Nc2nc(-c3c(C)nc4cc(C)ccn34)cs2)c(C)c1	0.42*!	-0.66*!
CCCCOc1ccc(C(=O)N2CC(=O)Nc3ccc(F)cc3C2c2ccc(F)cc2)cc1 (stereo not drawn)	0.83	-0.73
Cc1ccc(-n2c3c(cc(C(=O)Nc4ccc(Br)cn4)c2=O)C(=O)CC(C)(C)C3)cc1	0.96	-0.5
O=C(CCNC(=O)Cn1ccc2ccccc2c1=O)NCc1ccc(F)cc1Cl	1.1	1.2
COc1ccc(-n2nnnc2SCC(N)=O)cc1	1.1	1
COc1ccc(NC(=O)CSc2ccc(Nc3ccc(OC)cc3)nn2)cc1	0.96	-0.53
Cc1cccc(C(=O)Nc2c(C(=O)N3CCCC3)cnn2-c2ccccc2)c1	1	0.98
Cc1cc2nn(-c3ccccc3)nc2cc1NC(=O)COc1ccccc1	1.3	1.9
O=C(CN1C(=O)CSc2ccc(S(=O)(=O)N3CCOCC3)cc21)NCCN1CCOCC1	0.83	-2
Cc1ccc(C)c(N2CCN(C(=O)c3cc4c(s3)-c3ccccc3OC4)CC2)c1	1.1	3.4
CCc1ccc(NC(=O)CSc2nnc(-c3cccs3)n2CCc2ccccc2)cc1	0.89	-1.1
C=CCN(C(=O)Cn1c(C(=O)OC)cc2oc(C)cc21)c1ccccc1	1	1.2
COc1ccccc1NC(=O)c1c(C)c(-c2ccc(Cl)cc2)nc2ccccc12	1.2	0.54
CCC1=Nc2cc(C(=O)NC(C)CC)ccc2Sc2ccc(C)cc21 (stereo not drawn)	0.86	-6.8

Later entries:
structure	CBX7 inh	CBX7 inh z-score
COc1cc2c(=O)c(S(=O)(=O)c3ccccc3)cn(CC(=O)Nc3ccc(F)cc3)c2cc1OC	0.95	-1.6
O=C(c1cc(-c2cccc(Cl)c2)on1)N1CCOCC1	0.95	-0.73
C=C(C)Cn1c(CNC(=O)c2ccc(OC)c(OC)c2)nc2ccccc21	0.99	-0.13
O=C(c1ccc2c(c1)N(Cc1ccccc1)C(=O)c1ccccc1S2=O)N1CCOCC1 (stereo not drawn)	0.96	-1.1
CCc1ccc(NC(=O)C2c3cc(OC)c(OC)cc3C(=O)N3CCc4ccccc4C23)cc1 (stereo not drawn)	1	-0.057
CC1CCN(c2nc3ccc(C(=O)NCCN4CCOCC4)cc3s2)CC1	0.97	-0.63
COc1ccc(OC)c2[nH]c(=O)c(CCNC(=O)c3cccc(C(F)(F)F)c3)cc12	1.1	3
Cc1nn(Cc2ccc(Cl)cc2)c(C)c1NC(=O)c1cc(-c2cccs2)on1	0.89	-1.6
CC(=O)Nc1ccc(Oc2cc([N+](=O)[O-])cc3c2C(=O)Nc2ccccc2O3)cc1	0.66	-3.7
O=C(Nc1ccccc1Cl)N1CCN(c2ccc3nnc(-c4ccc(F)cc4)n3n2)CC1	0.9	-1.4
Cc1ccsc1CCNC(=O)c1cc2ccccn2n1	0.94	-1.4
CC(C)c1ccc(NC(=O)c2ccc(F)c(S(=O)(=O)N3CCOCC3)c2)cc1	1	0.4

Part of the list above in a different format:
Every second line gives: CBX7 inh, CBX7 inh z-score
- COc1cc2c(=O)c(S(=O)(=O)c3ccccc3)cn(CC(=O)Nc3ccc(F)cc3)c2cc1OC
 : 0.95, -1.6
- O=C(c1cc(-c2cccc(Cl)c2)on1)N1CCOCC1
 : 0.95, -0.73
- C=C(C)Cn1c(CNC(=O)c2ccc(OC)c(OC)c2)nc2ccccc21
 : 0.99, -0.13
- O=C(c1ccc2c(c1)N(Cc1ccccc1)C(=O)c1ccccc1S2=O)N1CCOCC1 (stereo not drawn)
 : 0.96, -1.1

Remaining list, next part.
structure	CBX7 inh	CBX7 inh z-score
CC(C)c1ccc(CNc2ccc3oc(-c4ccccc4)nc3c2)cc1	1.4	5.4
COC(=O)C(C)C1Sc2ccccc2N(Cc2ccc(F)cc2Cl)C1=O (stereo not drawn)	1.1	1
CC(C)N(Cc1nc(-c2ccccc2)no1)C(=O)COc1ccccc1	0.96	-0.85
COc1cc2cc(C)nc(Cc3ccccc3)c2cc1OC	0.95	-0.85
CCOC(=O)CC1NCC2c3ccccc3CCN2C1=O (stereo not drawn)	0.85	-0.72
CCOC(=O)c1cnc2c(C)cc(C)cc2c1Nc1ccccc1	1.1	1.3
Cc1cccc(CCNC(=O)C2CCN(S(=O)(=O)c3cccnc3)CC2)c1	0.98	-0.57
CCc1cccc(NC(=O)c2nc(-c3ccc(C)cc3)oc2C)c1	1.1	0.96
CCN1CCN(c2ncc(C(=O)NCCN3CCOCC3)c3ccccc23)CC1	1.5	0.92
Cc1cccc(C)c1NC(=O)C1(N(CCc2c[nH]c3ccccc23)C(=O)c2ccccc2F)CCCCC1	0.79	-3.8
O=C(CSc1nnc(Cc2cc(=O)[nH]c(=O)[nH]2)n1-c1ccc(F)cc1)N1CCc2ccccc21	1	0.033
CCC1Oc2ccc(C)cc2N(CC(=O)NCCCN2CCN(c3ccccc3F)CC2)C1=O (stereo not drawn)	0.84	-1.8
CNC(=O)C1CCN(c2nn3c(=O)cc(C)nc3s2)CC1	1.1	0.9
CCCOc1ccc(C2CC(=O)NC3=C2C(=O)CCC3)cc1OC (stereo not drawn)	0.9	-1.3
Cc1ccsc1/C=C/c1cc(C(F)(F)F)[nH]c(=O)n1	1	0.37
CCOC(=O)C1CCN(S(=O)(=O)c2ccc3c(c2)CCN3C(C)=O)CC1	1.2	2.5
CCCCCCCc1ccc(-c2ccc(C#N)cn2)cc1	2.6	2.7
COc1ccc(CCNC(=O)Cn2nnc(-c3ccccc3Cl)n2)cc1OC	1	0.62
CCN1CCN(c2cc(C)c3cc(NC(=O)c4ccc(F)cc4Cl)ccc3n2)CC1	1	0.24
CCC(C)NC(=O)Cn1nc(-c2ccc(C)cc2)ccc1=O (stereo not drawn)	1	0.11
CCOc1ccccc1CNC(=O)C1CCN(S(=O)(=O)c2ccc(C)cc2)CC1	0.93	-0.79
COc1ccc(OC)c(Nc2nc(-c3cccnc3)cs2)c1	0.86	-1.8
Cc1cc(=O)n2nc(N3CCC(C(=O)N4CCN(C)CC4)CC3)sc2n1	1	-0.11
COc1ccc(N(CC(=O)NCc2ccccc2OC)S(=O)(=O)c2c(C)nn(C)c2C)cc1	1.1	0.71
CCN(C(=O)c1cc2c(s1)-c1ccccc1OC2)c1ccc(C)c(C)c1	1	0.71
Cc1c(C(=O)NC2CCCC2)oc2ccc(S(=O)(=O)N3CCCC(C)C3)cc12 (stereo not drawn)	1.1	0.68
Cc1ccc(-n2c(CCC(=O)O)ccc2-c2cccs2)cc1Cl	0.8	-3.4
CCC(=O)N1c2ccc(S(=O)(=O)NCCN3CCN(CC)CC3)cc2CC1C (stereo not drawn)	1.5	1.9
CC1CCCC(NC(=O)CC(C(=O)N2CCc3ccccc32)n2ccnc2)C1C (stereo not drawn)	0.93	-1.5
CCS(=O)(=O)N1CCCC(C(=O)NCCc2ccccc2)C1 (stereo not drawn)	1.1	2
Cc1nc2c(-c3ccccc3)c(C)nn2c(C)c1CCC(=O)Nc1ccc(CN2CCCC2)cc1	1.3	2.8
Cc1ccc(CCNC(=O)CCNS(=O)(=O)c2ccc3c(c2)CCC(=O)N3)cc1	1	1.2
CCOc1ccccc1CNC(=O)c1cc(=O)[nH]c2ccc(S(=O)(=O)N3CCCC3)cc12	1	-0.026
COc1ccc(-c2cc(C(=O)NC3CCCCC3)no2)cc1OC	1.3	2.5
O=C(c1ccc2c(c1)N(Cc1ccccc1)C(=O)c1ccccc1S2=O)N1CCCC1 (stereo not drawn)	1.1	0.54
CC(C)c1ccc(OCc2nc(-c3ccncc3)no2)cc1	1.1	0.12
Cc1cc(C)c(-c2csc(NC(=O)c3cccc(C(F)(F)F)c3)n2)c(C)c1	1.1	0.91

7 entries out of the list above, arranged by their value in CBX7 inh z-score, ascending.
mol	CBX7 inh z-score
CC1CCCC(NC(=O)CC(C(=O)N2CCc3ccccc32)n2ccnc2)C1C (stereo not drawn)	-1.5
CCOc1ccccc1CNC(=O)c1cc(=O)[nH]c2ccc(S(=O)(=O)N3CCCC3)cc12	-0.026
CC(C)c1ccc(OCc2nc(-c3ccncc3)no2)cc1	0.12
O=C(c1ccc2c(c1)N(Cc1ccccc1)C(=O)c1ccccc1S2=O)N1CCCC1 (stereo not drawn)	0.54
Cc1c(C(=O)NC2CCCC2)oc2ccc(S(=O)(=O)N3CCCC(C)C3)cc12 (stereo not drawn)	0.68
CCC(=O)N1c2ccc(S(=O)(=O)NCCN3CCN(CC)CC3)cc2CC1C (stereo not drawn)	1.9
COc1ccc(-c2cc(C(=O)NC3CCCCC3)no2)cc1OC	2.5

Some of the compounds tested; the hit share may differ from the screen's.
